# MbtI inh – MbtI salicylate synthase inhibitors, primary screen, biochemical, fluorescence intensity; P9WFX0; purified MbtI enzyme, fluorescence intensity read-out; inhibition, %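 (about 17 µg/mL by stock and volumes)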; actives 0.89% (n = 100,000); AID 493033, 2011;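 active means above 50% in both replicates, above 80% if mildly self-fluorescent; inactive means the rest, strongly fluorescent compounds included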;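 further: 0% = mean of negative and 100% = mean of positive controls; one replicate is shown; some compounds called inactive have numbers as strong as hits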
# Polio RdRp inh – poliovirus RdRp elongation inhibitors, primary screen, biochemical, fluorescence polarization, total intensity; Genome polyprotein (Poliovirus type 1 (strain Mahoney)), P03300; poliovirus polymerase elongation; hits give low values; % elongation, % (compound at 16.7 µg/mL); actives 0.66% (n = 150,000); AID 588519, 2011; in the data active means % elongation below about 90%; further: some results filed as inactive read as strong as hits
# Target sequence (P03300 1749-2209 limits assumed): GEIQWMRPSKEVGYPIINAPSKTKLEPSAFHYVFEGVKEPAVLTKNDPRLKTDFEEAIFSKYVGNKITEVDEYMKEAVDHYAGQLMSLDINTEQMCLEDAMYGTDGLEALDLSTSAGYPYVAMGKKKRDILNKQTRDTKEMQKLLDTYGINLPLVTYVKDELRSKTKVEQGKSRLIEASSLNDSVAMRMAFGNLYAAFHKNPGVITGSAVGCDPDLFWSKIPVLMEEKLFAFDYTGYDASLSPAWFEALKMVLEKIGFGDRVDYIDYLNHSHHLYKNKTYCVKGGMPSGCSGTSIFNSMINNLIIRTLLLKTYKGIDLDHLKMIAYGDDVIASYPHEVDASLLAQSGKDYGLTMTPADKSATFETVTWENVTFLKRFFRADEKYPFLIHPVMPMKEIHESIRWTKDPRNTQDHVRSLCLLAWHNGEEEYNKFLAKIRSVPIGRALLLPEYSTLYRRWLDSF
# MenB inh – M. tuberculosis MenB inhibitors, primary screen, biochemical, absorbance. MenB enzyme assay, absorbance read-out; some hits fall short of the stated cut. actives 0.43% (n = 100,000). AID 540299, 2011. inhibition, %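 (about 12 µg/mL by stock and volumes)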. 1,4-dihydroxy-2-naphthoyl-CoA synthase (Mycobacterium tuberculosis (strain ATCC 25618 / …;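 active means mean of two replicates above 30%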;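 further: 0% = no compound and 100% = wells with inactive enzyme; the first replicate is given; strong numbers were not always called active; inactives centre near -10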
# Target sequence (P9WNP5 whole entry, looked up): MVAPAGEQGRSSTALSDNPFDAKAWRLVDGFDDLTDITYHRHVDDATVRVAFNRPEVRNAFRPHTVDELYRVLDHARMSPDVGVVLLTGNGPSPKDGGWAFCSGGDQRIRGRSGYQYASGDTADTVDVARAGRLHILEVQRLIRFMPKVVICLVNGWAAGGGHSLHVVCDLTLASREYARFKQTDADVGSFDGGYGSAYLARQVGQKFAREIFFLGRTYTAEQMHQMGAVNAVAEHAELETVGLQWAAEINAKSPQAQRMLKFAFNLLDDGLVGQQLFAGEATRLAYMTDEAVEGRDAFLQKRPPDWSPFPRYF
# Polio RdRp inh intensity – recorded beside Polio RdRp inh, whose call it bears; % elongation; measured here: total intensity read-out; formula for this scale not given here;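 total fluorescence in place of polarization; lower means less elongation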
# Starred values were filed as active, the others as inactive; . = no result given; & = joins results of further samples.
SMILES,MbtI inh,Polio RdRp inh,Polio RdRp inh intensity,MenB inh
CN(Cc1cnc2nc(N)nc(N)c2n1)c1ccc(C(=O)NC(CCC(=O)O)C(=O)O)cc1 (stereo unspecified),5&-2,103&101,102&101,-5&-2
c1cc(-c2nc(-c3ccc4c(c3)OCCCO4)cs2)ccc1-c1csnn1,1,107,110,-14
CC(=O)N1N=C(CCn2c3ccccc3c3ccccc32)OC1(C)c1cccs1 (stereo unspecified),-12,102,103,-2
COC(=O)c1sccc1S(=O)(=O)N1CCC(C(N)=O)(N2CCCCC2)CC1,-18,99,103,1
O=C(c1ccc(S(=O)(=O)NCc2ccco2)cc1)N1CCN(c2ncccn2)CC1,9,102,112,-12
CCOc1ccc2cc3c(N)c(C(=O)N(CC)CC)sc3nc2c1,31,101,124,-97
O=C(NNc1ccccc1)NNc1ccccc1,6,100,102,-40
Cc1ccc(N2NC(=O)CC2=O)cc1Cl,9,101,102,-3
CCOC(=O)Cc1csc(SCC(=O)NC2CCCCC2)n1,3,105,114,-3
CC1CC(C)CN(C(=O)CSc2nc3ccc(N4CCOCC4)cc3c(=O)n2Cc2ccc3c(c2)OCO3)C1 (stereo unspecified),-19,100,101,-1
O=C1CSC(c2ccc(Br)cc2)N1C1CCCCC1 (stereo unspecified),-8,101,95,.
Cc1ccc(N2CC(C(=O)N(C)Cc3c(F)cccc3Cl)CC2=O)cc1 (stereo unspecified),-2,104,103,-4
O=C(Cn1nnc(-c2ccc(Cl)cc2)n1)NC1CCS(=O)(=O)C1 (stereo unspecified),-1,102,105,-6
CC(=O)Nc1ccc(S(=O)(=O)N2c3ccccc3NC(=O)CC2C)c(Cl)c1 (stereo unspecified),0,99,94,10
CN(C)S(=O)(=O)c1cccc(CSc2nnc(-c3ccccc3Br)o2)c1,-4,100,103,3
Cc1nn(-c2ccccc2)c2nc(-c3cccs3)cc(-c3nnco3)c12,-6,101,116,-22
O=C1C2C3C=CC(C3)C2C(=O)N1CCCCN1C(=O)C2C3C=CC(C3)C2C1=O (stereo unspecified),-8,102,102,21
CC(C)C(=O)NC1CCCCCCCCCCC1,.,105,109,-2
COc1ccc2oc3c(c2c1)NC(=O)CN=C3c1ccc(F)cc1,8,100,102,-1
COC(=O)C1=C(C)OC(N)=C(C#N)C1c1ccco1 (stereo unspecified),-5,103,103,-25
CC(C)(C)c1cc(N)n(-c2ccccc2)n1,-4,103,101,.
Cc1ccc(SCC(=O)c2ccc(CC(=O)O)s2)cc1,12,108,102,-25
COc1ccc(S(=O)(=O)N2CC(O)C[C@H]2C(=O)OCC(=O)N2CCCCCC2)cc1 (stereo partly specified),-2,105,107,3
CNS(=O)(=O)c1cccc(C(=O)OCC(=O)Nc2ccc(N3CCCCC3)cc2)c1,10,97,102,4
COC(=O)CN1C(=O)S/C(=C\c2ccccc2)C1=O,22,103,106,-16

# Following part
SMILES,MbtI inh,Polio RdRp inh,Polio RdRp inh intensity,MenB inh
O=C(CN1CCN(c2nc3cc(Cl)ccc3s2)CC1)c1ccccc1,10,103,102,-20
CSC1=N/C(=C\c2ccc3c(c2)OCO3)C(=O)S1,5,102,102,-19
O=C(Cc1cn2ccsc2n1)OCC(=O)N1CCc2ccccc21,6,99,101,11
CC(=O)N1CC(C(=O)N2CCN(S(=O)(=O)c3ccc4c(c3)CCCC4)CC2)Oc2ccccc21 (stereo unspecified),-2,101,107,-38
Cc1cc(C(F)(F)F)nn1Cc1ccc(C(=O)O)o1,3,99,103,-22
CCOC(=O)c1noc(NC(=O)c2ccc(C(F)(F)F)cc2)c1-c1ccccc1,2,104,110,-30
COCCn1c(=O)c(C#N)cc2c(=O)n3ccccc3nc21,109,105,109,-3
COc1ccc(-n2nnn(CN3CC(C)OC(C)C3)c2=S)cc1 (stereo unspecified),-6,99,101,-34
OCC(O)CN(c1ccccc1)c1ccccc1 (stereo unspecified),77,103,101,-79
CC(C)Cc1ccc(S(=O)(=O)N2c3cc(F)ccc3CCC2C)cc1 (stereo unspecified),4,98,101,-65
COc1ccccc1NC(=O)Nc1c(SC)nsc1SC,-6,103,99,-2
COc1ccc(S(=O)(=O)N(CC(=O)O)c2cc(Cl)ccc2OC)cc1OC,-3,103,102,-6
O=C(Nc1ccccc1)C1CCN(C(=O)c2cccs2)CC1,3,101,102,-10
CCCNC(=O)CCc1nc(-c2ccc(C(C)(C)C)cc2)no1,16,102,98,7
CCn1c(C)cc(/C=C2/SC(=S)NC2=O)c1C,-10,104,109,-18
CC(=O)O[C@]1(C(C)=O)CC[C@H]2[C@@H]3C=C(C)C4=CC(=O)CC[C@]4(C)[C@H]3CC[C@@]21C,-12,105,100,-7
N=c1sccn1CC(=O)NCc1cccs1,-7,100,114,-4
Cc1csc(SCc2ccccc2C(=O)OCC(=O)Nc2nnc(-c3ccccc3)o2)n1,-7,104,99,-36
CCC(C)NC(=O)c1ccccc1-c1ccccc1C(=O)NC(C)CC (stereo unspecified),.,97,93,-17
Cc1sc2nc(CSC(C)C(=O)Nc3nnc(C4CC4)s3)[nH]c(=O)c2c1C (stereo unspecified),-7,.,.,-2
CCOC(=O)c1c(CC(C)C)csc1NC=C(C#N)C#N,24,101,126,-14
COC(=O)C1=C(C)NC(C)=C(C(=O)OC)C1C(=O)OCc1nc2ccccc2c(=O)n1CC#N,-135,107,111,-27
Cn1c(=O)c2c(O)c(C=NCc3cccnc3)c(=O)n(C)c2n(C)c1=O,8,100,96,-6
Cc1cc(OCC#N)nc(N)n1,7,102,105,0
O=C(O)c1cc(S(=O)(=O)N2CCCC2)ccc1O,-48,99,103,3

# Results in MbtI inh, Polio RdRp inh and Polio RdRp inh intensity, for 7 of the compounds above:
structure	MbtI inh	Polio RdRp inh	Polio RdRp inh intensity
COc1ccc(-n2nnn(CN3CC(C)OC(C)C3)c2=S)cc1 (stereo unspecified)	-6	99	101
O=C(Cc1cn2ccsc2n1)OCC(=O)N1CCc2ccccc21	6	99	101
Cc1cc(OCC#N)nc(N)n1	7	102	105
CCn1c(C)cc(/C=C2/SC(=S)NC2=O)c1C	-10	104	109
N=c1sccn1CC(=O)NCc1cccs1	-7	100	114
COCCn1c(=O)c(C#N)cc2c(=O)n3ccccc3nc21	109	105	109
O=C(O)c1cc(S(=O)(=O)N2CCCC2)ccc1O	-48	99	103

# New compounds follow
SMILES,MbtI inh,Polio RdRp inh,Polio RdRp inh intensity,MenB inh
CC(=O)NC(C(=O)N1CCN(S(=O)(=O)c2ccc(C)cc2)CC1)C(C)C (stereo unspecified),-8,102,97,-16
N#CC1=C2SCN(Cc3ccccc3)CN2C(=O)CC1c1ccccc1 (stereo unspecified),42,95,95,-22
CC(C)n1ncc2c1N=C(c1cccs1)N(C)C2c1ccccc1 (stereo unspecified),6,105,107,-10
COc1ccccc1NC1=NC(C)(C)CS1,-12,101,103,.
O=C(COC(=O)C1CC=CCC1C(=O)OCC(=O)c1ccc(Cl)cc1)c1ccc(Cl)cc1 (stereo unspecified),3,97,101,15
Cn1nc(OCC(N)=O)ccc1=O,-11,100,98,-65
COc1ccc(-n2c(CCC(=O)OCC(=O)N3CCCCC3C)nc3ccccc3c2=O)c(OC)c1 (stereo unspecified),-1,113,140,-11
CC(Nc1ccc(Cl)cc1)C(=O)Nc1ccc(S(N)(=O)=O)cc1 (stereo unspecified),3,100,93,-15
Cc1ccc(OCCNCCN)c(Br)c1,-3,103,104,-11
Cc1ccc2nc(SC/C(O)=C(\C#N)c3nc4ccccc4[nH]3)[nH]c2c1,-43,77,224,-11
COc1cc(NC(C)=O)ccc1-c1cc2ccccc2oc1=O,89,103,102,-33
CCOC(=O)c1cnc2c(OC)cccc2c1N1CCN(c2ccc(OC)cc2)CC1,-1,101,100,-4
O=C(O)Cn1c(=O)oc2ccccc21,-4,104,104,-61
O=C(Nc1ccncc1)c1snc2ccc(Cl)cc12,-3,103,99,.
Cc1cc(C)c2c(n1)sc1c3c(c(=O)[nH]c12)C(c1cccc(Cl)c1)C(C#N)=C(N)O3 (stereo unspecified),.,139,146,-21
CN(CC(=O)C(C#N)c1ccccc1)C1CCCCC1 (stereo unspecified),5,101,102,9
CCC(=O)N1CCc2cc(Br)cc(S(=O)(=O)N3CCN(c4ccc(OC)cc4)CC3)c21,-7,102,103,-14
Cc1ccc(S(=O)(=O)N2CCC[C@H]2C(=O)N2CCN(Cc3nc4ccccc4s3)CC2)cc1,4,102,92,-33
COc1ccc(-c2noc(CC3=NS(=O)(=O)c4ccccc4N3)n2)cc1,-7,103,106,-14
CCOC(=O)NC(=S)Nc1cc(C)cc(C)n1,11,103,101,-6
Cc1nnc(SCC(=O)N2CCOCC2)s1,.,107,102,0
CC1(C)C(=O)Nc2ccccc2N1C(=O)CSc1nnc2ccccn12,16,96,101,-7
Cc1cc(C)cc(NC(=O)C2CCN(Cc3cnn(-c4ccccc4)c3-n3cccc3)CC2)c1,-5,104,101,-24
CC(=O)Nc1ccc(CN(CCN(C)C)Cc2ccccc2)cc1,-13,100,103,-47
COC(=O)CCC(=O)c1oc2ccc(OC)cc2c1N,-18,102,109,-1

# (continued)
SMILES,MbtI inh,Polio RdRp inh,Polio RdRp inh intensity,MenB inh
CCCNS(=O)(=O)c1ccc2[nH]c(=O)ccc2c1,-4,102,107,5
CCc1nc2c(N(C)S(=O)(=O)c3ccc(C)cc3)nc3ccccc3n2n1,-2,104,99,-29
Cc1cc2c(n1-c1ccc(C(=O)N3CCN(c4ccccc4)CC3)cc1)CCCCC2,-9,103,107,-13
O=C1/C(=C/c2ccccc2Cl)SC2N=C(c3ccccc3)NN12 (stereo unspecified),.,105,110,-1
CCOC(=O)c1sc2ccc(S(=O)(=O)N3CC(C)CC(C)C3)cc2c1N (stereo unspecified),20,102,105,12
Cn1c(=O)cc(OCCCC(=O)NCc2ccccn2)c2ccccc21,5,100,103,0
CCOC(=O)N1CCC(NC(=O)c2nn(-c3ccc(OC)c(Cl)c3)c(=O)c3c2c2ccccc2n3C)CC1,28,98,96,-14
CCC(NC(=O)NC1CCCCC1)c1ccccc1 (stereo unspecified),-11,102,105,6
O=C(c1ccc(-n2nc(C(F)(F)F)c3c2-c2ccoc2CC3)cc1)N1CCCc2ccccc21,-2,99,102,-3
O=C(CCn1c(=O)oc2ccccc21)NCCCN1CCCC1=O,4,99,104,-6
CC(C)(C)N1CC(COc2ccccc2)OC1=O (stereo unspecified),-11,101,103,-40
O=S1(=O)C=C(Sc2nnnn2-c2ccccc2)c2ccccc21,80,104,103,-12
Nc1nonc1-c1noc(-c2ccccc2)n1,.,104,97,-4
Cc1noc(C)c1S(=O)(=O)NCCN1CCN(c2ccccc2F)CC1,0,102,104,3
O=C1c2ccccc2C(=O)N1CCOc1ccccc1,-5,103,99,-18
Cc1cccc(N2CCN(CC(=O)N(C)Cc3ccccc3)CC2C)c1 (stereo unspecified),8,95,98,-6
Cc1nnn(C23CC4CC(CC(CC(=O)Nc5ccc(Cl)cc5)(C4)C2)C3)n1,-7,97,102,-9
COC(=O)c1cc(=O)nc2sc3ccccc3n12,.,100,105,1
CN(C)S(=O)(=O)c1cccc(CN2C(=O)NC3(CCCCCC3)C2=O)c1,-3,97,95,6
CC(=O)Nc1cccc(-n2nnc(SCc3cc(Cl)cc4c3OCOC4)n2)c1,-10,108,116,4
C=CCN(Cc1ccc(OC)c(OC)c1)C(=O)NC1CCCCC1,-4,103,106,-25
O=c1c2ccccc2cnn1CCc1nc2c3ccccc3ncn2n1,-8,102,101,-3
O=c1occ(CO)c(O)c1CN1CCc2ccccc2C1,.,119,118,-51
Cc1nn(Cc2ccccc2)c(Cl)c1/C=N/NC(=O)c1cccnc1,28,102,95,7
Cc1onc(NC(=O)NC(=O)c2ccccc2F)c1Br,-2,110,108,-32

# Another view of part of the listing above:
# Below each compound: MbtI inh	Polio RdRp inh	Polio RdRp inh intensity	MenB inh
CCOC(=O)N1CCC(NC(=O)c2nn(-c3ccc(OC)c(Cl)c3)c(=O)c3c2c2ccccc2n3C)CC1
→ 28	98	96	-14
Cc1cc2c(n1-c1ccc(C(=O)N3CCN(c4ccccc4)CC3)cc1)CCCCC2
→ -9	103	107	-13
Nc1nonc1-c1noc(-c2ccccc2)n1
→ .	104	97	-4

# Next part.
SMILES,MbtI inh,Polio RdRp inh,Polio RdRp inh intensity,MenB inh
CC(C)=CCOc1ccc2c3c(c(=O)oc2c1C)CCCC3,-1,104,103,.
CN(C)C(=O)Cn1c(=O)n(C)c2ccccc21,4,104,100,-29
c1ccc(-n2ncc3c(N4CCC5(CC4)OCCO5)ncnc32)cc1,12,99,103,12
COC(=O)c1scc2c(Oc3ccccc3C(F)(F)F)cc(C(F)(F)F)nc12,-31,107,112,-16
CCN1CCN(C(=O)CCNC(=O)c2cc(OC)c(OC)c(OC)c2)CC1,-6,99,102,-30
COc1ccc(NC(=O)c2cc(C)nn2-c2ccccc2)cc1,-1,103,101,-12
CCOc1ccc(-c2nc(-c3cc(C)n(CCOC)c3C)cs2)cc1,10,103,98,-21
Cc1nn(C(=O)c2ccccc2)c(C)c1CN1C(=O)c2ccccc2C1=O,-15,101,102,-8
O=C(CN1C(=O)c2ccccc2S1(=O)=O)Nc1cccnc1,0,102,106,-14
COc1ccc(CN2C(=O)C(C)Oc3ccccc32)cc1 (stereo unspecified),-6,101,102,-13
COc1ccccc1C(=O)COC(=O)Cc1ccc(Cl)cc1Cl,-10,103,99,.
O=c1sc2ccccc2c2nc[nH]c12,11,102,101,-31
O=C(NCC1CCCCC1)c1cn(-c2ccccc2)nc1-c1cccs1,34,105,107,-17
CCCCC(=O)c1ccc(OC(C)C)cc1,-10,100,103,-10
